LANA-H2B inh – blocks KSHV LANA binding to histone H2A/H2B; Q9QR71; cell-free LANA-H2A/H2B peptide, fluorescence polarization; inhibition, % (test concentration not listed); 320,000 compounds, 0.6% hits; AID 2629; in the data active means inhibition mostly above about 10%, no sharp cut-off; inactive means mostly below about 6.7%;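 further: stock transfer was 7.5 nL into about 10 µL; 0% = median of vehicle wells and 100% = median of positive control wells; one replicate is shown; the record names a cut of 25% in any replicate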
FGF22 binding – binders of recombinant human FGF22 by thermal shift; Q9HCT0; SYPRO orange fluorescence; percent of sucrose octasulfate shift, DMSO zero; calls only at 9.99 µM; 340,000 compounds, 1.5% hits; AID 651658;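 active means melting point raised past a set limit in the mean and every replicate; three in four hits are not shown here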
Target sequence (Q9HCT0 whole entry, looked up): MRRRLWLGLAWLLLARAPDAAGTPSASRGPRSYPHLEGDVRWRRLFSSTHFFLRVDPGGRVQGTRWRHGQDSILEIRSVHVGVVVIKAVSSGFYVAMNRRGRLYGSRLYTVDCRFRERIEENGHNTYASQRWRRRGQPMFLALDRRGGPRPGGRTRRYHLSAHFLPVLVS
UCH37 DUB inh – human UCH37 deubiquitinating enzyme inhibition; purified proteasome/UCH37, Ub-AMC cleavage fluorescence; AID 588478; 330,000 compounds, 0.33% hits; inhibition, % (concentration not given with the values); Q9Y5K5;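 active means mean of two replicates above 20%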;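 further: 0% = compound-free wells with enzyme and 100% = wells lacking proteasome; stock transfer was 100 nL into about 20 µL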
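Reagent: Ub-AMC substrate; assay system: Proteasome-associated human UCH37 deubiquitinase; controls: no-proteasome and no-compound wells; read-out: % inhibition of Ub-AMC cleavage fluorescence; timing: 30 min preincubation with enzyme, 25 min cleavage at room temperature; signal: AMC fluorescence from Ub-AMC cleavage, excitation 355 nm, emission 460 nm; buffer or medium: Tris-HCl pH 7.4 plus ovalbumin, ATP-MgCl2, DTT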
Ecoli growth – inhibitors of Escherichia coli growth | OD600, 23 h; active compounds read low | OD600 absorbance (concentration not given with the values) | 330,000 compounds, 0.21% hits;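 active means OD600 absorbance below the run mean of sample wells minus 3.6 SD, in any replicate, cut at about 0.56 in these data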;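 further: stock transfer was 300 nL into about 60 µL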
ALR inh – blocks human ALR sulfhydryl oxidase activity. P55789. purified ALR, DTT oxidation, H2O2 HRP-luminol luminescence. inhibition, % (no concentration beside the values). 290,000 compounds, 3.8% hits. AID 485317;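 active means mean and each replicate at 75% or more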;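 further: stock transfer was 7.5 nL into about 7.5 µL; 0% = neutral wells and 100% = wells with inactivated enzyme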
Target sequence (P55789 whole entry, looked up): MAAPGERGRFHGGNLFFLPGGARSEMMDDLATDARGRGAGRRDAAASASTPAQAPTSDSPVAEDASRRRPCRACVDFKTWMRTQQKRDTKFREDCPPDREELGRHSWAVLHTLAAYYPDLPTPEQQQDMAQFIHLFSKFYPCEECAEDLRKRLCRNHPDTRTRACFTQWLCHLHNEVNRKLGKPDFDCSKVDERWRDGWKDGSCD
B2AR ag – activates human beta-2 adrenergic receptor causing internalization. P07550. Am2.2-beta2AR cells, FAP receptor internalization, flow cytometry; reference of the scale not given here. response, % (test concentration not listed). 340,000 compounds, 0.43% hits. AID 504454;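 active means response above a set limit, near 3 SD of response in nonfluorescent compounds, cut at about 42% in these data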;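 further: stock transfer was 100 nL into about 11 µL; a reference agonist was the positive control; negative values mostly stem from fluorescent compounds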
HNF4A DNA FP – change in binding of human HNF4 alpha to DNA | P41235 | HNF4a-FITC DNA binding, fluorescence polarization, 1 h | activity change, % at 10 µM | 360,000 compounds, 0.3% hits | AID 1224865; in the data active means activity change above about 30%, passing the limit was not always enough;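 further: controls were the assay level and a saturating level of protein; the project sought stronger binding though the title names inhibitors; some compounds called inactive have numbers as strong as hits; positive values seem to mean higher polarization but the record does not say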
Target sequence (P41235 whole entry, looked up): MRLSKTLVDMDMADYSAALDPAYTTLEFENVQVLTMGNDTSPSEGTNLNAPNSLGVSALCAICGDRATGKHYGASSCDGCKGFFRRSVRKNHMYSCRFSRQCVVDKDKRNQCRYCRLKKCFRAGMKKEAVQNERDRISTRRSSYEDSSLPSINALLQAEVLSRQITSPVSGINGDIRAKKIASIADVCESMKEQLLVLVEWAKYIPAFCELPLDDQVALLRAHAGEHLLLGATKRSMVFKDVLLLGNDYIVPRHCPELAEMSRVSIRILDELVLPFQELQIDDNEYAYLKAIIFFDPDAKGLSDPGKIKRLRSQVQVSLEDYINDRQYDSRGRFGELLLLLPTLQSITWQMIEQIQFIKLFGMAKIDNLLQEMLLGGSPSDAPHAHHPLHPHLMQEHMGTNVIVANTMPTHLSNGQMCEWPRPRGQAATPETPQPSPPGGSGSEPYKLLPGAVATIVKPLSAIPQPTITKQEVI
Active calls of the source: *; i = inactive; x = no result given; + = active, no number. Some of the compounds tested; rates above refer to the full screens.

Every second line gives: LANA-H2B inh	FGF22 binding	UCH37 DUB inh	Ecoli growth	ALR inh	B2AR ag	HNF4A DNA FP
#1 CCOC(=O)c1ccc(NC(=O)CC2C(=O)N(c3cccc(OC)c3)C(=O)N2CCOC)cc1 (centres undefined)
 : 0.1	x	5.5	0.77	-2	1	7.2
#2 COc1ccccc1C1c2[nH]c3ccccc3c2CCN1Cc1ccc(NC(C)=O)s1 (centres undefined)
 : 3.2	i	0.6	0.7	x	16	1.7
#3 Cc1ccc(Cn2c(Sc3ncccn3)nc3c2c(=O)[nH]c(=O)n3C)cc1
 : 5.7	x	2.0	0.71	-4	-5	2.4
#4 COc1cccc(-c2cc(C(F)(F)F)nc(NCc3ccco3)n2)c1
 : -0.3	x	-4.9	0.71	0	-11	-0.8
#5 N#Cc1c(SCC(=O)Nc2ccc(Cl)cc2Cl)sc2c(O)cc(=O)[nH]c12
 : -0.4	i	5.7	0.7	99*	2	-8.6
#6 Cc1nn(Cc2ccccc2Cl)c(C)c1C(=O)N(C)CC(=O)Nc1cccc(F)c1
 : 4.8	i	2.0	0.67	x	-7	-2.6
#7 CC(C)(C)OC(=O)N(CCc1ccccc1)Cc1ccccc1OCc1cccc(NC(=O)/C=C/c2ccccc2)c1
 : x	i	x	x	x	-9	-0.7
#8 CCC(=O)Nc1cc(ON=C(C)C)cc([N+](=O)[O-])c1
 : -2.3	x	4.9	0.65	x	-12	-4.2
#9 COC(C/C=C/[C@@H](O)COCc1ccccc1)OC
 : 2.3	i	0.4	x	34	8	-3.3
#10 COc1ccc(C(C)=O)cc1COC(=O)CNC(=O)c1ccc(Cl)cc1
 : -2.2	i	5.4	0.71	56	-3	-1.3
#11 CCCCc1n[nH]c2c1/C(=N/O)CC(C)(C)C2
 : -0.1	x	x	x	4	-4	1.6
#12 CCOC(=O)c1c(-c2ccco2)csc1N
 : -3.2	x	2.8	0.68	-6	-2	3.9
#13 CC1CC(C)CN(C(=O)COC(=O)C2CCN(S(=O)(=O)c3c(Cl)cccc3Cl)CC2)C1 (centres undefined)
 : 11	i	1.1	0.69	-15	-1	-0.4
#14 COC(=O)C1=C(C(=O)OC)[C@@H]2Nc3ccccc3[C@@]23C[C@@H](C(=O)OC)N(C(=O)c2ccco2)C3=N1
 : -0.9	i	4.6	x	3	-1	1.4
#15 Cc1ccc(OCC(=O)N/N=C\c2ccc(C)o2)c([N+](=O)[O-])c1
 : x	i	x	x	x	i	33
#16 COCC1=C(C(=O)OC)C(c2ccco2)n2ncnc2N1 (centres undefined)
 : 1.3	i	6.6	0.68	5	23	-4.8
#17 COc1ccc([C@@H]2COc3c(ccc4c3C=CC(C)(C)O4)C2)c(OC)c1
 : 5.8	i	5.6	0.7	-6	-3	1.1
#18 O=C(O)C(Oc1ccc(Cl)cc1)c1ccc(Cl)cc1 (centres undefined)
 : x	i	0.8	0.66	x	0	1.8
#19 Cc1ccsc1/C=N/NC(=O)c1cccnc1
 : -6.6	i	x	x	-4	1	-0.2
#20 CCOC(=O)C1CCCN(C(=O)c2cccc(NC(=O)C(CC)CC)c2)C1 (centres undefined)
 : 3.4	i	2.9	0.66	-10	1	-2.8
#21 CC(C)N(CC(N)=O)C(=O)Cc1coc2cc3c(cc12)CCC3
 : 4.1	i	-1.1	0.69	x	0	1.7
#22 Cc1nc(N2CCN(c3ccccn3)CC2)c2c(C)c(C(=O)Nc3ccc(F)cc3)sc2n1
 : -4.4	i	-2.0	0.74	-7	17	0.3
#23 O=C(COc1ccccc1)Nc1nn[nH]n1
 : 4.3	x	4.3	0.71	-7	2	0.7
#24 Cc1sc2nc[nH]c(=S)c2c1-c1ccccc1
 : 1.6	i	2.4	0.68	5	4	-1.8
#25 COc1cccc2cc(C(=O)Nc3cc(C)cc(C)c3)/c(=N/NS(=O)(=O)c3ccccc3)oc12
 : 3.0	i	x	x	-1	0	1.8
#26 O=C(CCNc1cccc(Cl)c1)c1ccco1
 : 4.8	x	1.0	0.63	97*	8	0.5
#27 Cc1nc(N2CCCCC2)sc1C(=O)c1ccc(Cl)c([N+](=O)[O-])c1
 : 3.6	x	0.2	0.7	0	x	x
#28 CCOC(=O)c1ccc(NC(=O)Cn2nc(C)c3ccccc3c2=O)cc1
 : -1.4	i	1.8	0.7	-3	-6	3.9
#29 CCc1nonc1NC(=O)c1oc2ccc(F)cc2c1C
 : x	i	1.1	0.72	1	-5	7.0
#30 Cc1ccc(C)c(NC(=O)c2sc(Cl)nc2-c2ccccc2)c1
 : -4.2	x	2.6	0.67	6	0	-2.7
#31 Cc1cc(C)cc(NC(=O)Nc2ccc3c(c2)N(C)C(=O)CS3)c1
 : -5.7	i	7.2	0.73	70	18	6.4
#32 Nc1nc(SCC(=O)NCc2ccccc2Cl)[nH]c(=O)c1NC(=O)c1ccccc1F
 : 0.9	x	3.3	0.67	3	3	1.6
#33 Cc1ccc(NC(=O)c2cccc(NC3=NC4CS(=O)(=O)CC4S3)c2)cc1C (centres undefined)
 : 24*	i	3.0	0.72	9	3	-0.4
#34 Nc1ccc(S(=O)(=O)c2cccc(N)c2)cc1
 : 4.9	i	0.1	0.7	0	-5	2.0
#35 Cc1cccc(-c2noc(CCC(=O)NCc3ccco3)n2)c1
 : -1.5	i	2.9	0.7	7	-3	1.0
#36 CN(C)C(=S)SCC(=O)Nc1ccc(Cl)cc1Cl
 : -4.5	+	2.0	0.66	47	-9	1.0
#37 CCNCc1ccc(OCc2cccs2)c(OCC)c1
 : -5.6	i	0.8	0.66	-17	-3	6.5
#38 O=C(O)CCCNc1ccc(S(=O)(=O)N2CCCCC2)cc1
 : -4.3	x	1.4	0.7	-4	8	1.4
#39 COC(=O)c1cccc(S(=O)(=O)N2CCC(n3nnc4cc(F)ccc43)CC2)c1
 : 0.7	x	4.0	0.7	-9	-4	0.1
#40 NC(=O)c1ccc(N2CCN(c3ccccc3O)CC2)c([N+](=O)[O-])c1
 : -3.2	x	8.2	0.72	-2	-3	3.0
#41 O=C(CC1SC(=NCC2CCCO2)NC1=O)Nc1cc([N+](=O)[O-])ccc1Cl (centres undefined)
 : -1.9	i	3.5	0.73	17	-3	-3.9
#42 Cc1cc(C)c(NC(=S)NCC2CCN(C(C)c3ccccc3)C2)c(C)c1 (centres undefined)
 : 2.8	i	8.2	0.62	11	12	-3.3
#43 O=C(Nc1ccc(Cl)cc1)N1CCC(c2nc(-c3ccccc3Cl)no2)CC1
 : -3.4	x	6.0	0.67	-4	-2	-1.4
#44 CCOC(=O)NNC(=S)Nc1c(C)n(C)n(-c2ccccc2)c1=O
 : -1.3	i	2.4	0.69	47	-5	-3.0
#45 Cc1ccc(-c2onc3ccc(Br)cc23)cc1
 : 2.0	i	1.9	0.65	13	0	-0.3
#46 CCOC(=O)N1N=C(C)CC1(O)c1ccc(Cl)cc1 (centres undefined)
 : 9.3	i	3.7	0.67	-1	0	-2.0
#47 CCOc1cccc(C2/C(=C(/O)c3ccc4c(c3)CC(C)O4)C(=O)C(=O)N2CCN2CCOCC2)c1 (centres undefined)
 : -1.1	i	12	0.66	16	0	2.2
#48 c1ccc2c(c1)CCN(c1nc3cc4c(cc3s1)OCO4)C2
 : 2.8	x	-5.3	0.71	20	4	3.2
#49 CC(=O)Nc1ccc(NC(=O)C(C)OC(=O)C2(c3ccc(Cl)cc3)CCCC2)cc1 (centres undefined)
 : -1.6	i	0.8	0.74	-5	-16	-4.5
#50 NS(=O)(=O)c1ccc(CNC(=O)c2cnccn2)cc1
 : 2.9	i	2.5	0.72	-6	-7	1.4
#51 CCCCC1=CC2=CC(=O)C(C)(OC(=O)CC)C(=O)C2=CN1Cc1ccc(OC)cc1 (centres undefined)
 : 1.8	i	-1.4	0.7	-18	-1	-7.0
#52 CCCCn1c(-c2c(Cl)c(C)nn2C)n[nH]c1=S
 : -3.3	x	-0.1	0.67	6	1	-1.9
#53 CCc1noc(C)c1C(=O)N1CCN(S(=O)(=O)c2cccs2)CC1
 : 2.7	i	0.6	0.71	-3	-8	1.4
#54 Cc1ccc2nc(C)c(C(=O)N/N=C/c3cccs3)cc2c1
 : 3.5	i	x	x	-4	-7	-4.4
#55 CC(=O)N1CCC(N(CCN2CCOCC2)C(=S)Nc2ccc(C)cc2C)CC1
 : -3.1	i	-0.7	0.71	9	-13	0.8
#56 NC(=O)CSc1nnc2n(-c3ccccc3)c(=O)c3c4c(sc3n12)CCCCC4
 : -0.2	x	-0.1	0.73	24	-8	3.1
#57 COc1cccc(C(=O)NC2CCCc3c2cnn3-c2cc(C)cc(C)c2)c1 (centres undefined)
 : 1.7	i	0.2	0.64	-1	-2	4.3
#58 Cc1noc(C)c1NC(=O)Nc1ccc2c(c1)C(=O)N([C@H](C)CO)C[C@H](C)[C@@H](CN(C)C(=O)Nc1c(C)noc1C)O2
 : 2.6	i	2.0	x	-6	-1	-4.2
#59 COc1ccc(CC(=O)NC2CCCc3ccccc32)cc1 (centres undefined)
 : -1.4	i	3.8	0.7	19	0	1.5
#60 O=CNCCc1nc2ccccc2n1CCc1ccccc1
 : 3.7	i	1.3	0.71	0	-6	-3.2
#61 Cc1nonc1C(=O)N/N=C/c1ccncc1
 : -0.4	x	x	x	-6	3	1.2
#62 FC(F)(F)c1cccc(-n2c(Cn3nnc4ccccc43)n[nH]c2=S)c1
 : -1.4	i	-2.2	0.7	44	2	-4.3
#63 Cc1cccc([C@@H]2[C@@H]3C(=O)N(Cc4ccccc4)C(=O)[C@@H]3[C@]3(C)C(=O)N(c4ccc(Br)cc4)C(=O)N23)c1
 : -2.8	x	3.7	x	-5	-4	2.7

Source: PubChem (several laboratories)
